Bead autofluor: compound fluorescence in toxin protease inhibitor counterscreen. compound autofluorescence counterscreen, microsphere flow cytometry; stronger effect = higher value. fluorescence intensity (no concentration beside the values). actives 3.1% (n = 360,000). AID 624483;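 active = at least 3 SD above the mean of all compounds, about 16000 in these data; inconclusive = too few beads counted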;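 note: 100 nL of 1 mM stock went into each well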
Sa RN4220 lethal: growth inhibition of S. aureus RN4220, primary screen, OD600; 16 h; inhibition, % (concentration not given with the values); actives 0.33% (n = 330,000); AID 1259311, 2017;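 active = z-score of -3 or lower and OD600 up to 0.18 on both plates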;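 note: plate controls were untreated cells for no effect and reference antibiotic for full effect; stock transfer was 100 nL into about 80 µL; one replicate is shown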
Sa ugtP lethal: growth inhibition of ugtP-null S. aureus, primary screen, RN4220 ugtP deletion, OD600 | 16 h; some inactives read as strong as hits | growth inhibition, % (no concentration beside the values) | actives 0.54% (n = 330,000);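 active = z-score under -3 and OD600 up to 0.15 on both plates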;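 note: plate controls were untreated wells for no effect and antibiotic for full effect; wells of about 80 µL received 100 nL stock; the first replicate is given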
BJeLR viability: MLPCN primary cell-based screen for lethality selective to Ras in HRASV12 cells. BJeLR (HRASV12) viability, CellTiter-Glo ATP luminescence, 48 h; reference of the scale not given here. inhibition, % (no concentration beside the values). actives 0.17% (n = 300,000);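 active = replicate mean above 50%; inconclusive = above 50% but judged a plate artefact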;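 note: 50 nL library stock added to about 25 µL; numbers are from one replicate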
PrP 5UTR inh: inhibition of PrP 5' UTR reporter expression. cell-based PrP 5' UTR mRNA reporter, plate reader. inhibition, % (no concentration beside the values). actives 0.35% (n = 340,000);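 active = every replicate at 50% or more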;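 note: 0 = median of the neutral control wells; tested in H4 reporter cells; numbers are from one replicate; inactives centre near -14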
Mtb hypoxia rep: PubChem AID 1159583. actives 0.1% (n = 300,000). fluorescence inhibition, % (test concentration not listed). M. tuberculosis hypoxia-regulated fluorescent reporter, fluorescence;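 active = 35 to 45% if threefold the growth effect, above 45% if 1.5-fold the growth effect; inactive = the rest, general growth blockers included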;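 note: wells of about 50 µL received 100 nL stock; 0% = vehicle wells and 100% = reference inhibitor wells; whole bacteria with a GFP reporter of the hypoxia response; strong numbers were not always called active; many hits fall short of the cut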
Mtb hypoxia rep growth: further read-out of Mtb hypoxia rep, marked with its call; growth inhibition, %; measured here: M. tuberculosis growth (absorbance);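 0% = vehicle and 100% = reference antibiotic; read after six days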
Numbers without * were called inactive; ? = inconclusive; nt = not tested or not shown.

SMILES	Bead autofluor	Sa RN4220 lethal	Sa ugtP lethal	BJeLR viability	PrP 5UTR inh	Mtb hypoxia rep	Mtb hypoxia rep growth
O=S(=O)(c1ccc(S(=O)(=O)N(Cc2ccco2)Cc2ccccc2Cl)cc1)N1CCCC1	3390	4.3	-5.0	2.9	-6.3	-0.5	0.7
COC(=O)c1ccc(OCCCCN(C)Cc2ccccc2)cc1	4018	2.2	0.1	7.1	4.0	1.9	15.9
Cc1ccc(/C=C2\SC(N3CCCC3)=NC2=O)cc1	nt	-0.1	3.4	2.5	nt	nt	nt
O=C(NN=Cc1cccc(F)c1)c1ccc(-c2ccccc2)cc1	nt	-0.2	-1.5	nt	nt	-1.0	6.8
Cc1cc(=O)[nH]c2c1c(C)nn2C1CCCC1	18691*	0.9	2.0	nt	0.3	3.6	10.4
COc1ccc(NC(=O)/C(=C\c2ccc(OS(=O)(=O)c3ccc(C)cc3)cc2)NC(=O)c2ccccc2)cc1	2181	nt	nt	2.0	-1.6	nt	nt
CCN(CC(=O)Nc1ccc(NC(C)=O)cc1)C(=O)c1ccc(N2CCC(C)CC2)c([N+](=O)[O-])c1	6342	5.2	16.9	nt	-8.9	2.5	-1.3
O=C1C=C(NCCc2ccccc2)C2(CCCCC2)O1	3874	1.0	5.5	-1.1	5.4	8.6	5.9
O=C(Cn1nnc2ccccc21)NN=Cc1cccs1	nt	7.1	3.4	nt	nt	12.4	6.1
CN1CCc2nc(NC(=O)c3cccc(S(=O)(=O)N4CCc5ccccc54)c3)sc2C1	2765	7.0	6.7	-1.4	-6.5	nt	nt
CC(=O)NC1C(=O)N=C(SCC(=O)Nc2sc3c(c2C#N)CCCCCC3)NC1=O (stereo unspecified)	4334	8.3	20.0	-3.3	-14.9	7.2	-7.2
COC(=O)[C@H]1C[C@@H]1[C@H](NC(=O)c1cc(C)on1)c1ccccc1	3897	nt	nt	-6.5	-82.1	nt	nt
Cn1cnnc1SCc1ccc(F)c2ccccc12	6086	4.3	-5.4	3.1	-56.6	14.0	-15.7
CCOC(=O)CC(=O)CSc1nc2c(sc(=S)n2-c2ccc(C)c(C)c2)c(=O)[nH]1	3235	18.8	16.3	1.0	-7.7	7.0	-3.5
CC1CC1C(=O)OCC(=O)NCc1ccc(Cl)cc1Cl (stereo unspecified)	4427	7.9	17.6	1.9	-31.3	5.6	0.0
COc1ccc(C)cc1NC(=O)C1CCN(C(=O)Cc2ccccc2)CC1	3265	0.8	-1.7	4.8	-17.3	-1.5	-2.8
COc1ccccc1C(=O)N/N=C1/NC(=O)CC(C(=O)Nc2ccccc2)S1 (stereo unspecified)	3904	2.7	2.7	7.2	-15.6	-3.5	10.7
Cc1occc1-c1nnc(SCC(N)=O)o1	4579	1.7	1.6	8.2	-26.9	4.0	5.9
CSc1ncccc1C(=O)OCC(=O)N(C)C	3879	8.4	1.8	7.8	2.0	11.3	-1.2
CN1CCN(C(=O)c2cc(Cl)cc(Cl)c2)CC1	4133	nt	nt	0.3	-23.0	nt	nt
CCN(CC)C(=O)Oc1ccc2oc(=O)cc(-c3cc4cccc(OC)c4o3)c2c1	6049	5.4	-12.8	8.0	-0.2	1.7	0.1
COc1cc(C=Nn2cnnc2)ccc1OC(=O)N(C)C	nt	2.3	6.9	nt	nt	11.6	3.3
ON=C1CCC/C1=C\c1ccco1	nt	7.7	2.9	nt	nt	5.1	9.8
CC(C)(CNC(=O)c1ccc(S(=O)(=O)Nc2ccccc2F)cc1)N1CCOCC1	?	nt	nt	2.9	5.0	nt	nt
O=C(Nc1ccccc1)c1ccc[n+](Cc2ccc([N+](=O)[O-])cc2)c1	2240	3.6	-3.1	-9.0	-32.8	5.2	3.3
CC(C)CN(C(=O)CSc1nnnn1-c1ccccc1)c1c(N)n(CC(C)C)c(=O)[nH]c1=O	4199	1.8	-0.9	-0.5	-42.8	7.6	-5.7
COc1ccccc1NC(C)C(=O)NN=Cc1ccccc1OCc1cccc(Br)c1 (stereo unspecified)	nt	4.0	-2.7	nt	nt	4.1	0.5
O=C(COc1ccccc1)NCc1ccccc1	8014	0.9	-5.8	3.4	-6.0	nt	nt
O=C(c1ccccn1)N1CCCC(N2CCN(c3ccccc3)CC2)C1 (stereo unspecified)	6283	3.9	0.6	-3.9	-9.7	14.0	2.0
COCc1cc(=O)[nH]c2cc(NC(=O)C(F)(F)F)c(C)cc12	3214	0.0	0.7	10.9	-3.7	1.8	5.1
CN(Cc1ccccc1)C(=O)C1CCN(S(=O)(=O)c2cccc3nonc23)CC1	5532	-1.4	6.9	-9.0	-15.7	15.6	6.6
O=C(CS(=O)(=O)Cc1ccccc1)Nc1nnc(C2CCCCC2)s1	9851	6.1	10.5	-15.1	-8.6	3.8	10.8
NS(=O)(=O)c1cccc(NC(=O)CSc2nc3nc(-c4cccs4)cc(C(F)(F)F)c3c(=O)[nH]2)c1	4985	10.5	12.7	-8.5	-4.2	2.0	8.9
CC(C)CCOP(=O)(c1ccc(N(C)C)cc1)C(O)c1ccccn1 (stereo unspecified)	16641*	5.9	11.4	3.1	0.6	1.5	0.9
COc1cccc(-c2ncc3ccccn23)c1	3261	-1.0	-2.8	-4.8	-75.1	18.7	5.2
CNS(=O)(=O)c1cccc(C(=O)OCC(=O)c2ccc3c(c2)OCCO3)c1	nt	-1.0	5.1	nt	-9.9	4.8	1.0
O=C(Cc1ccccc1Cl)c1ccccc1	2877	5.0	13.0	nt	-0.9	12.3	6.1
CCN(C(=O)COC(=O)C1CCC(C(C)(C)C)CC1)c1c(N)n(Cc2ccccc2)c(=O)[nH]c1=O (stereo unspecified)	2964	14.7	12.8	nt	-4.5	0.9	1.9
NC(=O)C1CCN(C(=O)CSc2nc3ccccc3[nH]2)CC1	3793	5.2	-2.7	-1.1	-6.7	11.5	4.2
CCN(Cc1ccccc1)S(=O)(=O)c1cc(C(=O)OC)n(C)c1	6051	4.8	-12.3	-2.7	-1.3	nt	nt
COc1ccc(S(=O)(=O)N2CCCN(S(=O)(=O)c3ccc(OC)cc3C)CC2)c(C)c1	9740	4.9	-0.8	-8.0	-20.1	-2.8	7.9
Cc1ccc(/C=C/c2onc(C)c2S(=O)(=O)N2CCC(C(=O)N3CCCCC3)CC2)cc1	5932	-15.4	-9.2	-14.5	-33.0	-0.7	7.5
C#CCn1cc(C=NNc2nc3ccccc3[nH]2)c2ccccc21	nt	-4.7	-18.3	nt	nt	4.3	4.2
CCC(=O)C1CCCN(C(=O)c2cccc(OC3CCN(S(C)(=O)=O)CC3)c2)C1 (stereo unspecified)	4330	1.4	-2.7	-10.1	-0.3	-5.0	-4.6
Cc1cc(Sc2ccc([N+](=O)[O-])cn2)ccc1Br	4491	2.4	8.4	0.7	-7.6	-2.4	5.4
O=C(CN1C(=O)/C(=C/c2cccc(Br)c2)SC1=S)N1CCCC1	2390	-1.9	-2.7	-1.6	-7.9	8.9	12.0
Cc1ccc(COC(=O)Cc2coc3cc(O)ccc23)cc1	3917	nt	nt	1.1	-16.8	nt	nt
CN(CCc1cn[nH]c1)Cc1nc(Cc2ccccc2)no1	3984	-1.4	-7.3	1.4	-7.5	-0.9	11.9
COc1ccc(C(=O)n2c(N)nc3ccccc32)cc1OC	3572	1.1	5.0	-0.1	-82.4	5.8	-1.5
CN1CCC(OC(=O)c2ccc(Br)cc2)CC1	21548*	1.6	-3.0	-3.3	-11.1	10.7	2.3
COc1ccc(OC)c(-c2nn(-c3ccccc3)cc2C(=O)NCC(c2cccs2)N2CCOCC2)c1 (stereo unspecified)	5295	5.6	-18.6	-7.2	-10.0	8.9	-2.0
CCOc1ccc(NC(=O)CN(C)C(=O)c2cccc3ccccc23)cc1OCC	?	4.5	4.5	nt	-5.0	5.9	5.9
Cc1cc(=O)oc2cc3oc(=O)cc(C)c3cc12	nt	2.6	12.2	-15.1	-11.5	3.2	1.0
CC(C)=C(NC(=O)c1ccccc1)C(=O)N/N=C(\C)c1ccccc1O	2485	nt	nt	11.0	-5.4	nt	nt
CCN(CC)CCNc1nc2c(c(=O)[nH]c(=O)n2C)n1CCCc1ccccc1	3988	6.0	7.5	1.9	0.5	0.4	11.4
CCOC(=O)C1CCCN(CCC(=O)Nc2ccc(Br)c(C)c2)C1 (stereo unspecified)	3936	0.6	4.8	6.9	-12.0	2.6	8.5
O=C(NCC1CCCO1)c1ccccc1NC(=O)c1cccc2ccccc12 (stereo unspecified)	9437	3.7	-8.6	-2.7	-19.6	5.1	3.7
Cc1ccc(C(=O)c2ccccc2C(=O)O)s1	3535	2.7	2.9	-1.1	-13.3	nt	nt
CCC(C)C(=O)OC1CCC=C2C=CC(C)C(CCC3CC(O)CC(=O)O3)C21 (stereo unspecified)	3808	6.7	-5.8	nt	-18.5	11.1	8.6
COC(=O)c1ccc(CNC(=O)c2ccc3c(c2)OCCO3)cc1	3792	-3.4	8.6	-5.8	-27.4	10.0	7.1

The final 7 compounds of the section before lead into the next.
SMILES	Bead autofluor	Sa RN4220 lethal	Sa ugtP lethal	BJeLR viability	PrP 5UTR inh	Mtb hypoxia rep	Mtb hypoxia rep growth
CC(C)=C(NC(=O)c1ccccc1)C(=O)N/N=C(\C)c1ccccc1O	2485	nt	nt	11.0	-5.4	nt	nt
CCN(CC)CCNc1nc2c(c(=O)[nH]c(=O)n2C)n1CCCc1ccccc1	3988	6.0	7.5	1.9	0.5	0.4	11.4
CCOC(=O)C1CCCN(CCC(=O)Nc2ccc(Br)c(C)c2)C1 (stereo unspecified)	3936	0.6	4.8	6.9	-12.0	2.6	8.5
O=C(NCC1CCCO1)c1ccccc1NC(=O)c1cccc2ccccc12 (stereo unspecified)	9437	3.7	-8.6	-2.7	-19.6	5.1	3.7
Cc1ccc(C(=O)c2ccccc2C(=O)O)s1	3535	2.7	2.9	-1.1	-13.3	nt	nt
CCC(C)C(=O)OC1CCC=C2C=CC(C)C(CCC3CC(O)CC(=O)O3)C21 (stereo unspecified)	3808	6.7	-5.8	nt	-18.5	11.1	8.6
COC(=O)c1ccc(CNC(=O)c2ccc3c(c2)OCCO3)cc1	3792	-3.4	8.6	-5.8	-27.4	10.0	7.1
O=C(CSc1nnnn1-c1cccc(O)c1)NC1CC1	5755	1.3	3.5	9.9	-13.1	12.5	-1.5
Cc1cc(C)cc(Oc2ccccc2C=O)c1	2961	31.5	17.7	10.8	-11.1	8.6	2.3
Cc1ccc(NC2CCCN(C(=O)c3cccs3)C2)cc1C (stereo unspecified)	4708	0.2	-2.7	-4.1	1.3	-0.7	7.9
CCOc1ccccc1N1CCN(C(=O)c2ccc(Cl)c(S(=O)(=O)N3CCCCC3)c2)CC1	6290	0.2	-3.1	nt	-24.3	7.5	-3.0
COc1ccccc1CNC(=O)CS(=O)Cc1nc(-c2ccc(OC)c(OC)c2)oc1C (stereo unspecified)	6103	2.8	2.9	6.3	-9.4	13.2	5.4
CC1(C(=O)OCC(=O)Nc2ncc(Cl)cc2Cl)CC1(Cl)Cl (stereo unspecified)	4326	-0.1	-4.1	nt	-26.8	2.0	-0.5
CN(C(=O)COC(=O)c1cc(F)c(F)cc1Cl)c1ccccc1	3758	3.1	0.9	6.3	-25.0	13.9	8.6
CCOC(=O)Cn1c(=NC(=O)C2COc3ccccc3O2)sc2cc(S(N)(=O)=O)ccc21 (stereo unspecified)	7920	nt	nt	-1.6	-10.6	nt	nt
CCc1noc(C)c1C(=O)N(Cc1ccccc1)c1c(N)n(CCOC)c(=O)[nH]c1=O	4051	2.3	3.1	0.8	-18.8	4.3	-2.5
Cc1nc2ccc(NC(=O)c3cccs3)cc2c(=O)n1Cc1ccc(Cl)cc1	13512	-1.1	17.9	-2.8	-22.4	9.6	5.2
Cn1c(SCC(=O)Nc2cccc(Br)c2)nnc1-c1cc2ccccc2o1	7836	1.8	-6.8	7.9	-39.7	-2.0	2.5
COC(=O)[C@@H](NC(=O)N1CCN(C(=O)C2COc3ccccc3O2)CC1)C(C)C (stereo partly specified)	6016	2.0	-0.1	7.6	-12.1	9.1	-0.4
CCCCNC(=O)N1c2ccccc2CC1C (stereo unspecified)	2022	-0.1	3.5	-4.2	-14.1	8.1	20.7
CCOC(=O)c1[nH]c2ccc(OC)cc2c1NC(=O)C(C)N1CCSCC1 (stereo unspecified)	nt	-18.0	-10.5	10.7	nt	4.3	7.5

High-throughput results from PubChem BioAssay.

Random draw from the library. Share with any hit: about 4.1%.
